# HCMV NEC inh: inhibitors of HCMV UL50-UL53 interaction, biochemical, HTRF; HCMV UL50-UL53 nuclear egress complex (human cytomegalovirus); normalized percent inhibition; inhibition, % (concentration not given with the values); actives 0.15% (n = 190,000); AID 1918969, 2023;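 active = both replicates at 50% or more, plus weaker picks with an unusually low signal ratio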;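 also: stock transfer was 100 nL into about 20 µL; 0% = negative control wells and 100% = wells with untagged competitor protein; inactives centre near -12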
# GIV Gai3 FP: inhibitors of GIV peptide binding to Galpha-i3, primary screen, biochemical, fluorescence polarization, FITC-GIV GBA peptide, rat Galphai3. percent of control (FP), % (concentration not given with the values). 90 min; stronger effect = lower value; scaled: aluminum fluoride 0%, vehicle 100%. Guanine nucleotide-binding protein G(i) subunit alpha-3 (Rattus norvegicus), P08753. AID 1224905, 2016. actives 0.42% (n = 210,000);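 active = replicate mean at 85% of control or lower, very high polarization wells dropped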;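 also: wells of about 15 µL received 100 nL stock; the first replicate is given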
# Target sequence (P08753 whole entry, looked up): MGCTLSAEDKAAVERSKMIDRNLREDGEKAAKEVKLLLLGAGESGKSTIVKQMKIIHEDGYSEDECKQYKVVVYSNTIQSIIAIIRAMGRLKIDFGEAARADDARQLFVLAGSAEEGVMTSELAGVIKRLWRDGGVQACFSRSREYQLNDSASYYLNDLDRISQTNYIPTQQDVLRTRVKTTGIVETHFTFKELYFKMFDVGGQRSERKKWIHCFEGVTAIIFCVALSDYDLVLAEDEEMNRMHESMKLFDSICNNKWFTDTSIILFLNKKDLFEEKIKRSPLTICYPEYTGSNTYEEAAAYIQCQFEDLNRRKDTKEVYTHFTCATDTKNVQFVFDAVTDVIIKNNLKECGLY
# Sa growth inh: S. aureus growth inhibition at 42 and 30 °C, primary screen, LtaS inhibitor project, RN4220, two temperatures; OD600, 20 h, 42 °C; stronger effect = lower value; relative growth, % (test concentration not listed); actives 0.53% (n = 170,000); AID 720641, 2013;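 active = growth at 42 °C up to 50% and 20 or more points under that at 30 °C, or under 10% at both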;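 also: 300 nL library stock went into each well; scaled to the means of positive and negative controls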
# Sa growth inh second temp: second read-out of Sa growth inh, no call of its own (marks repeat the call); relative growth, %; measured here: growth at 30 °C;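 optical density after 20 h as mean of two plates; 100% = untreated growth and lower means inhibition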
# * = called active by the depositor; nt = no result given. Outcome played no part in choosing rows. Share with any hit: about 0.83%.
SMILES,HCMV NEC inh,GIV Gai3 FP,Sa growth inh,Sa growth inh second temp
COc1ccc(-n2c3c(c(=O)[nH]c2=O)C(NC(C)=O)(C(F)(F)F)C(=O)N3)cc1 (stereo not given),nt,100,110,88
CCOc1nc2sc3c(c2c2ncnn12)CCCC3,-4,104,111,96
CCC(C)C1Nc2ccc(C(=O)NC3CCCC3)cc2NC1=O (stereo not given),-16,102,79,80
COc1ccc(CN(C(=O)c2sc3ccccc3c2Cl)c2ccccn2)cc1OC,-32,108,nt,nt
CC(C)c1ccc([C@@H]2Nc3ccc(C(=O)O)cc3[C@@H]3C=CC[C@@H]32)cc1,nt,119,80,72
COc1cc(CNc2ccc3[nH]c(=O)[nH]c3c2)cc(Cl)c1OCc1ccccc1F,-16,106,101,89
COc1ccc(CNC(=O)CN(c2ccc(C)cc2)S(=O)(=O)c2c(C)noc2C)cc1,-18,100,110,92
Cc1cn(CC(=O)c2ccccc2)c2ccccc12,-15,103,128,107
O=C(OCC(=O)N1CCc2ccccc21)c1n[nH]c2ccccc12,-47,nt,115,83
CCOc1ccc(NC(=O)c2oc3ccccc3c2NC(=O)c2cccs2)cc1,1,107,88,76
Cc1cccc(NCC(O)Cn2nnnc2-c2ccccc2)c1 (stereo not given),7,108,102,92
CCCCC(C(=O)O)N1C(=O)c2ccccc2C1=O (stereo not given),nt,99,119,88
NS(=O)(=O)c1ccc(CCNc2cc(=O)n(Cc3ccc(F)cc3)c(=O)[nH]2)cc1,10,104,122,70
O=C(/C=C/c1ccco1)N1CCc2ccccc2C1,-39,nt,86,86
O=C(COC(=O)c1ccc2ccccc2n1)Nc1cc(C(F)(F)F)ccc1N1CCOCC1,-10,nt,86,93
NS(=O)(=O)c1ccc(NC(=O)c2c[nH]c(=O)n(-c3ccccc3)c2=O)cc1,13,101,nt,nt
CC(C)N1CCC2(CC1)N=C(c1ccc3c(c1)OCO3)CC(c1cc(Cl)ccc1O)N2 (stereo not given),-23,105,79,83
Cn1c(C(=O)NCc2ccccc2)cc2sccc21,7,108,108,94
Cc1c(C(=O)OCc2ccccc2)nnn1-c1ccc(Br)cc1,9,97,nt,nt
CCc1nnsc1C(=O)Nc1ccc(S(=O)(=O)N2CCOCC2)cc1,-15,104,89,89
CCC(C)(C)C1CCC(=NNc2ccccn2)CC1 (stereo not given),8,nt,94,85
Cn1c(CSCCOc2ccccc2)n[nH]c1=S,-22,100,91,81
Cc1cccc(N2CCN(C(=O)c3c(C)oc4ncnc(N5CCCCC5)c34)CC2)c1C,nt,105,94,89
Cc1ccccc1NCCC(=O)NCc1ccccc1F,1,nt,90,93
CC1CN(C(=O)COC(=O)c2ccc(C(=O)c3ccccc3)cc2)CC(C)O1 (stereo not given),-21,nt,83,95

# Part of the list above, with two lines to a compound:
# Values in the order – HCMV NEC inh, GIV Gai3 FP, Sa growth inh, Sa growth inh second temp
COc1ccc(-n2c3c(c(=O)[nH]c2=O)C(NC(C)=O)(C(F)(F)F)C(=O)N3)cc1 (stereo not given)
  nt, 100, 110, 88
CCOc1nc2sc3c(c2c2ncnn12)CCCC3
  -4, 104, 111, 96
CCC(C)C1Nc2ccc(C(=O)NC3CCCC3)cc2NC1=O (stereo not given)
  -16, 102, 79, 80
COc1ccc(CN(C(=O)c2sc3ccccc3c2Cl)c2ccccn2)cc1OC
  -32, 108, nt, nt
CC(C)c1ccc([C@@H]2Nc3ccc(C(=O)O)cc3[C@@H]3C=CC[C@@H]32)cc1
  nt, 119, 80, 72
COc1cc(CNc2ccc3[nH]c(=O)[nH]c3c2)cc(Cl)c1OCc1ccccc1F
  -16, 106, 101, 89
COc1ccc(CNC(=O)CN(c2ccc(C)cc2)S(=O)(=O)c2c(C)noc2C)cc1
  -18, 100, 110, 92
Cc1cn(CC(=O)c2ccccc2)c2ccccc12
  -15, 103, 128, 107
O=C(OCC(=O)N1CCc2ccccc21)c1n[nH]c2ccccc12
  -47, nt, 115, 83
CCOc1ccc(NC(=O)c2oc3ccccc3c2NC(=O)c2cccs2)cc1
  1, 107, 88, 76
Cc1cccc(NCC(O)Cn2nnnc2-c2ccccc2)c1 (stereo not given)
  7, 108, 102, 92
CCCCC(C(=O)O)N1C(=O)c2ccccc2C1=O (stereo not given)
  nt, 99, 119, 88
NS(=O)(=O)c1ccc(CCNc2cc(=O)n(Cc3ccc(F)cc3)c(=O)[nH]2)cc1
  10, 104, 122, 70
O=C(/C=C/c1ccco1)N1CCc2ccccc2C1
  -39, nt, 86, 86
O=C(COC(=O)c1ccc2ccccc2n1)Nc1cc(C(F)(F)F)ccc1N1CCOCC1
  -10, nt, 86, 93
NS(=O)(=O)c1ccc(NC(=O)c2c[nH]c(=O)n(-c3ccccc3)c2=O)cc1
  13, 101, nt, nt
CC(C)N1CCC2(CC1)N=C(c1ccc3c(c1)OCO3)CC(c1cc(Cl)ccc1O)N2 (stereo not given)
  -23, 105, 79, 83
Cn1c(C(=O)NCc2ccccc2)cc2sccc21
  7, 108, 108, 94
Cc1c(C(=O)OCc2ccccc2)nnn1-c1ccc(Br)cc1
  9, 97, nt, nt
CCc1nnsc1C(=O)Nc1ccc(S(=O)(=O)N2CCOCC2)cc1
  -15, 104, 89, 89
CCC(C)(C)C1CCC(=NNc2ccccn2)CC1 (stereo not given)
  8, nt, 94, 85
Cn1c(CSCCOc2ccccc2)n[nH]c1=S
  -22, 100, 91, 81
Cc1cccc(N2CCN(C(=O)c3c(C)oc4ncnc(N5CCCCC5)c34)CC2)c1C
  nt, 105, 94, 89
Cc1ccccc1NCCC(=O)NCc1ccccc1F
  1, nt, 90, 93

# Continuation.
SMILES,HCMV NEC inh,GIV Gai3 FP,Sa growth inh,Sa growth inh second temp
CCOC(=O)c1c(-c2ccc(OC)cc2)noc1C,-6,111,106,96
O=C1c2ccccc2C(=O)N1SC1CCCCC1,2,nt,44,15
COc1cc(Br)cc(CO)c1O,-8,104,nt,nt
CC(C)NC(=O)c1cc2c(s1)CCC2,-13,nt,94,97
Cn1c(=O)c2c(-c3ccc(F)cc3)ccnc2n(C)c1=O,-26,99,nt,nt
COc1cccc(-c2nc3ccccc3c(=O)n2NC(=O)c2cc(Br)ccc2Cl)c1,10,100,nt,nt
CC(C)CC1CC(=O)NC(N)=N1 (stereo not given),nt,109,92,98
Cc1nn(CC(=O)NCCCN2CCOCC2)c(=O)c2c1sc1ccccc12,-25,101,87,85
COc1ccc(-c2cc(-c3ccccc3)nc3c2COc2ccc(F)cc2-3)cc1,14,101,96,93
C#Cc1cccc(-n2nnc(-c3ccccc3)c2C)c1,-21,107,107,91
Oc1cccc2c(NC(=S)NC3CC3)cccc12,-3,nt,133,108
Cc1ccc(NS(=O)(=O)c2ccc3nc(-c4ccccc4)[nH]c3c2)c(Br)c1,-10,106,102,93
COc1ccc(-c2nc3c(C#N)c[nH]n3c2NC2CCCCC2)cc1,-2,99,87,76
Cc1ccc(NC(=O)Cn2c(=O)n(CCC(=O)N3CCc4ccccc4C3)c(=O)c3ccccc32)cc1,-17,104,118,92
Cc1ccc(CSc2nc3cccnc3n2Cc2ccc(C(=O)NCCc3ccccc3)cc2)cc1,nt,101,105,87
O=C(O)Cc1cn(Cc2ccc(F)cc2)c2ccccc12,-8,94,nt,nt
COC(=O)C1=C(Nc2cccc(-c3nn(C)cc3Br)c2)CSC1,5,96,91,90
CCCCCSc1nc2sc3c(c2c(=O)n1-c1ccc(OC)cc1)CCN(C(C)=O)C3,4,111,81,85
O=C1CC(c2ccc(S(=O)(=O)NC3CC3)cc2)CN1 (stereo not given),0,nt,93,86
CC(=O)Nc1ccc(NC(=O)C2CC(=O)N(CCc3c[nH]c4ccc(F)cc34)C2)cc1 (stereo not given),0,95,nt,nt
N#CCSc1ccccc1NC(=O)COc1ccc(-c2nnco2)cc1,-22,nt,99,87
O=C(CCC1CCCCC1)NCCCN1CCOCC1,-13,nt,88,84
CCCn1c(=O)c2ccc(C(=O)NC(C)C)cc2n2c(=O)n(CC(=O)NCc3ccccc3)nc12,-36,105,nt,nt
Nn1c(SCc2cccnc2)nncc1=O,-17,105,104,90
CCOc1ccccc1CN1CCC(CNC(=O)c2cc(=O)[nH]c3ccc(S(=O)(=O)N4CCCCC4)cc23)CC1,-24,101,99,86

# Carrying on:
SMILES,HCMV NEC inh,GIV Gai3 FP,Sa growth inh,Sa growth inh second temp
CCn1c(=O)c(N2CCC(C(=O)NCc3ccccc3)CC2)nc2cccnc21,-11,99,nt,nt
Cc1ccc(C(OCC(C)(C)C[N+](C)(C)C)c2ccccc2)cc1 (stereo not given),nt,121,103,81
COc1ccc(CCNc2nc(SCc3cccc(Cl)c3)nc3ccccc23)cc1OC,nt,101,101,81
Cn1c(-c2ccc(C(=O)c3ccccc3)s2)nc2ccccc21,-15,104,101,96
CCOC(=O)c1cc2n(n1)CC(C)(C(=O)NC1CCCCC1)N(c1ccc3c(c1)OCO3)C2=O (stereo not given),11,98,nt,nt
CC1CCCCC1NC(=O)Cn1nc(-c2ccccc2)ccc1=O (stereo not given),-4,101,100,90
O=C(c1nc2ncccn2n1)N1CCN(c2ccccc2)CC1,-2,102,103,109
Cc1ccc(S(=O)(=O)NCc2ccc(C(=O)N3CCN(c4ccccc4)CC3)cc2)cc1,nt,100,81,49
CCCn1c(C)cc(/C=C(\C#N)C(=O)OCc2nc3ccccc3s2)c1C,-14,nt,91,97
COC(=O)c1c(C)oc2ccc(N(C(=O)Oc3ccccc3)S(=O)(=O)c3ccc(C(C)(C)C)cc3)cc12,-41,101,92,90
Cc1nn(C(C)C(=O)NCc2cccc(F)c2)c(=O)c2c1sc1ccccc12 (stereo not given),-8,104,91,88
CCOc1c(CNCCSc2nnnn2C)cccc1OC,-8,106,99,89
COCCNC(=O)CCSc1nc(-c2ccc(OC)cc2)cc(C(F)(F)F)n1,-20,103,81,91
COC(=O)c1cc(S(=O)(=O)N2CCCC2C(=O)Nc2nc3ccc(OC)cc3s2)cn1C (stereo not given),8,99,nt,nt
CCCc1cc(=O)n2[nH]c(NCc3ccccc3)nc2n1,-18,98,112,78
Cc1cc2oc(C(=O)Nc3onc4c3CCCC4)c(C)c2cc1Cl,-30,103,nt,nt
CCCc1cc(=O)n2[nH]c(CNc3cccc(Cl)c3)nc2n1,-34,100,nt,nt
CC(=O)N1c2ccc(S(=O)(=O)NCCc3cccc(C)c3)cc2CC1C (stereo not given),nt,106,106,85
CNC(=O)CSc1nnc(NC(=O)Nc2ccccc2)s1,nt,100,110,97
CC1(C)CC(=O)C=C(SCc2c(Cl)cccc2Cl)S1,-48,103,97,86
COc1cc(/C=C/c2nc(C#N)c(NCCc3ccccc3)o2)cc(OC)c1OC,-23,99,106,82
CC1=NOC(c2ccccc2O)N(C)C1(C)C (stereo not given),7,101,99,88
Cc1ccc(C)c(S(=O)(=O)Nc2ccc3oc(C)c(C(=O)OC(C)C)c3c2)c1,-8,104,nt,nt
Cc1ccc(CN2C(=O)c3ccccc3Sc3ccc(C(=O)OCc4ccco4)cc32)cc1,nt,101,96,75
COC(=O)c1ccccc1NC(=O)C1CC(c2cccc(Br)c2)=NO1 (stereo not given),nt,96,87,82

# Additional structures:
SMILES,HCMV NEC inh,GIV Gai3 FP,Sa growth inh,Sa growth inh second temp
COc1ccc(N2CCN(C(=O)c3cnc(N4CCCC4)nc3C)CC2)cc1,nt,104,92,92
COc1cccc(C(=O)Nc2ccccc2SCc2cc(=O)c3cccc(C)c3[nH]2)c1,nt,100,114,81
CCOC(=O)c1cccc(NC(=O)Cn2ncc3c4ccccc4n(Cc4ccccc4)c3c2=O)c1,-34,107,104,86
CC(CCC(=O)O)C1CC[C@H]2C3CCC4CC(=O)CCC4(C)[C@H]3CC(=O)C12C (stereo not given in full),nt,95,107,89
CCOc1ccc(OCC)c(NS(=O)(=O)c2c(C(=O)N3CCCCCC3)c(C)n(C)c2C)c1,nt,101,82,84
CCCCn1c(COc2cc(C)cc(C)c2)nc2cc(S(N)(=O)=O)ccc21,0,nt,91,91
O=C(CC(Sc1ccccc1)c1ccc2c(c1)OCO2)c1ccco1 (stereo not given),-36,100,68,61
O=C(CN1C(=O)COc2ccc(S(=O)(=O)NC3CCCC3)cc21)NCc1ccccc1Cl,nt,101,103,86
Cc1csc2nc(-c3cccc(NC(=O)c4ccccc4Cl)c3)cn12,nt,104,136,105
Fc1ccc(CSc2ncnc3c2oc2ccccc23)cc1,9,107,104,91
CCCC(C(=O)Nc1ccc2c(c1)OCCO2)N1Cc2ccccc2C1=O (stereo not given),2,103,nt,nt
Cc1noc(/C=C/c2ccccc2F)c1S(=O)(=O)N1CCC(C(=O)NCC(C)c2ccccc2)CC1 (stereo not given),nt,99,84,89
CSc1nccc(-c2cccnc2)n1,-1,103,81,89
O=C(CC1Oc2ccccc2NC1=O)Nc1ccccc1Br (stereo not given),2,110,121,98
CC1=CCC2C(=O)N(C(CC(C)C)C(=O)O)C(=O)C2C1 (stereo not given),16,99,102,99
O=C1c2nc3cc(-c4ccco4)[nH]n3c(=O)c2CN1C1CCCCC1,-33,99,87,84
CC(C)n1c2ccc(Cl)cc2c2nc3ccccc3nc21,nt,103,115,83
N#Cc1c(NC(=O)COC(=O)c2ccccc2)oc(-c2ccccc2)c1-c1ccccc1,-23,nt,85,85
OCCCc1cn(-c2ccccc2)c2ccccc12,-8,nt,84,75
O=S(=O)(NCc1cccc(Br)c1)c1ccc(-c2cc(C(F)(F)F)on2)s1,nt,102,110,91

# Bioassay records (PubChem)
